KCNQ2 inh = KCNQ2 potassium channel inhibitors, primary screen, cell-based, CHO-K1, FluxOR thallium flux, B-score (AID 2156); Potassium voltage-gated channel subfamily KQT member 2 (Rattus norvegicus), O88943; 20 min; hits give low values; only compounds with negative scores are shown here; some inactives read as strong as hits; B-score at 10 µM; actives 1.1% (n = 310,000);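 active = fluorescence ratio B-score at most minus 3 library SDs, with starting brightness B-score within 2 library SDs, cut at about -5.5 in these data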
Target sequence (O88943 whole entry, looked up): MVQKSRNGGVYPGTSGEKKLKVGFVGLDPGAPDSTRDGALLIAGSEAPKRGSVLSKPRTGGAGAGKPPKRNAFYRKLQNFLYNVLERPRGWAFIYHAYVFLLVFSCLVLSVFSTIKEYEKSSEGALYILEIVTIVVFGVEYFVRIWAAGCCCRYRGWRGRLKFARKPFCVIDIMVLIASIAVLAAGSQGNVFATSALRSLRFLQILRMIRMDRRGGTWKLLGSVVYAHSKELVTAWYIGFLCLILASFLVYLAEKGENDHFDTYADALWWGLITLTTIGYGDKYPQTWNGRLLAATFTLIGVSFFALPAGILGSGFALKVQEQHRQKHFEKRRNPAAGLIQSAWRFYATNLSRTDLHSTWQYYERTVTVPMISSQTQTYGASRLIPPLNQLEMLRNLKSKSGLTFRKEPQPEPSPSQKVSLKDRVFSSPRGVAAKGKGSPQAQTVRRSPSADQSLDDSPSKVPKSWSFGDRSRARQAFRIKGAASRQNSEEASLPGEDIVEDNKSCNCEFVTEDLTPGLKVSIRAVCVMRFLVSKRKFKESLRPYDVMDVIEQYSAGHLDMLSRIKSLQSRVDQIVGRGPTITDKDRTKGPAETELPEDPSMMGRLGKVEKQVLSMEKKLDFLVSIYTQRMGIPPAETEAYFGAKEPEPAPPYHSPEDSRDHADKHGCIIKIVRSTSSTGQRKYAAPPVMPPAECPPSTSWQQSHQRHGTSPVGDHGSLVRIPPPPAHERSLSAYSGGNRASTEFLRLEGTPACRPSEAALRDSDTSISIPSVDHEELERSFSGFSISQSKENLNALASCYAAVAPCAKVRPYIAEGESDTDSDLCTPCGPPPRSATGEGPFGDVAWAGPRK
KCNQ2 inh baseline = recorded beside KCNQ2 inh, whose call it bears; B-score; measured here: initial fluorescence intensity artifact check;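 brightness before thallium and not channel activity; 0 = typical well and far values either way flag optical interference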
Active calls of the source: *; i = inactive. The list is partial; the hit share may differ from the screen's.

Every second line gives: KCNQ2 inh, KCNQ2 inh baseline
> COc1ccc(CC(NC(C)=O)C(=O)NC2CCN(S(=O)(=O)c3ccc(NC(C)=O)cc3)CC2)c(OC)c1 (stereo unspecified)
 : i, 1.7
> CSc1nn(-c2ccc(C(=O)OC(C(=O)NC(N)=O)C(C)C)cc2)c(=S)s1 (stereo unspecified)
 : i, 2
> CC(=O)OCCn1c2nc(=O)[nH]c(=O)c-2nc2cc(C)c(C)cc21
 : i, 100
> CCN(Cc1ccccc1)C(=O)/C=C/c1ccccc1[N+](=O)[O-]
 : i, -2.3
> Cc1ccc(NC(=O)N2CCN(c3ccccn3)CC2)cc1
 : i, 4.8
> COc1cc(/C=N/NC(=O)CCC(=O)NC2CCCCC2)ccc1C
 : i, -0.95
> COc1cccc(/C=N/NC(=O)CNC(=O)C(c2ccccc2)c2ccccc2)c1O
 : i, 0.27
> COc1ccc(C2CC(c3ccc(F)cc3)n3nc(NS(C)(=O)=O)nc3N2)cc1 (stereo unspecified)
 : i, -0.38
> Cn1nc(C(F)(F)F)c(-c2ccc(Br)cc2)c1NC(=O)c1ccco1
 : i, -0.63
> COC(=O)CCCn1nc(NC(=O)COc2ccc(F)cc2)cc1C
 : i, 1.5
> CCCC1CCC(C(=O)Nn2c(C)nc3ccccc3c2=O)CC1 (stereo unspecified)
 : i, 0.64
> COc1ccc2oc(=O)c(C(=O)NCCc3ccc(OC)c(OC)c3)cc2c1
 : i, 0.4
> O=c1c(Cc2ccc(Cl)cc2)c(O)ccn1Cc1cccs1
 : i, 1.4
> CCOC(=O)Cn1c(-c2cccnc2)nc(-c2ccccc2)c1-c1ccccc1
 : i, 0.68
> COC(=O)Cc1csc(Nc2ccc(Cl)cc2)n1
 : i, 0.84
> O=C(CN1CCN(S(=O)(=O)c2ccc3ccccc3c2)CC1)NC(=O)NC1CCCCC1
 : i, -1.6
> COc1ccccc1N1CCN(C(=O)c2ccc3[nH]c4c(c3c2)CC(C)CC4)CC1 (stereo unspecified)
 : i, 0.34
> CN1CCN(c2ccc(C(=O)c3cn(-c4ccc(F)c(Cl)c4)nn3)cc2)CC1
 : i, -0.03
> CCOC(=O)c1cccc(NC2c3ccccc3C(=O)N2Cc2ccco2)c1 (stereo unspecified)
 : i, -1.7
> CC1CCCN(S(=O)(=O)c2ccc3c(c2)n(C)c(=O)c(=O)n3C)C1 (stereo unspecified)
 : i, -1.6
> COc1ccc(NS(=O)(=O)c2ccc(C)c(C(=O)NCC(c3cccs3)N3CCOCC3)c2)cc1 (stereo unspecified)
 : i, -0.02
> CC(C)(C)OC(=O)N1CCC[C@H]1C(=O)N/N=C/c1ccc2nccnc2c1
 : i, -2
> Cc1cccc(Nc2nc(-c3ccc(O)cc3O)cs2)n1
 : i, 2.1
> COc1ccc(CN2CC(=O)N(c3cc(Cl)ccc3OC)C2=S)cc1OC
 : i, 0.57
> COc1ccccc1CNC(=O)Cn1nc(C)c([N+](=O)[O-])c1C
 : i, -0.46
> O=[N+]([O-])c1ccccc1/C=N/Nc1nc(N2CCCC2)nc(N2CCCC2)n1
 : i, 1.1
> NS(=O)(=O)c1ccc(CNC(=O)C(c2ccccc2)c2ccccc2)cc1
 : i, 1.5
> O=C(NC(=S)Nc1ccccc1[N+](=O)[O-])c1cncc(Br)c1
 : i, -2.7
> Cc1cc(C)cc(OCC(=O)Nc2ccc3c(c2)OCO3)c1
 : i, -1.3
> Cc1ccc(C(=O)N/C(=C/c2ccco2)C(=O)NCCc2c[nH]c3ccccc23)cc1C
 : i, -0.57
> COC(=O)c1ccc(Cl)c(NC(=O)CN(c2ccc(OC)cc2)S(=O)(=O)c2ccccc2)c1
 : i, 0.41
> COc1cc2[nH]c(=S)n(CC3CCCO3)c(=O)c2cc1OC (stereo unspecified)
 : i, -0.03
> CC(=O)c1cccc(NC(=S)N2CCC(Cc3ccccc3)CC2)c1
 : i, -0.06
> Cc1ccccc1N(C)C(=O)c1coc(=O)c2ccccc12
 : i, 0.66
> COc1ccc(OC)c(C(=O)N2CCCC(Nc3ccc(F)cc3)C2)c1 (stereo unspecified)
 : i, -0.5
> O=C1N=C(N2CCOCC2)S/C1=C/c1cc2c(cc1[N+](=O)[O-])OCO2
 : i, -1.1
> Clc1ccc2oc(-c3cccnc3)nc2c1
 : i, -0.88
> CCCCNC(=O)Nc1ccccc1C(=O)Nc1ccc(OC)cc1
 : i, 1.1
> CCOc1ccccc1NC(=O)c1ccc2ccccc2c1
 : i, 0.28
> O=C(CN1C(=O)c2cccc3cccc1c23)N1CCN(c2cccc(Cl)c2)CC1
 : i, -0.17

Shown with tabs: entries from further up.
SMILES	KCNQ2 inh	KCNQ2 inh baseline
Cc1cc(C)cc(OCC(=O)Nc2ccc3c(c2)OCO3)c1	i	-1.3
Cc1ccc(C(=O)N/C(=C/c2ccco2)C(=O)NCCc2c[nH]c3ccccc23)cc1C	i	-0.57
COC(=O)c1ccc(Cl)c(NC(=O)CN(c2ccc(OC)cc2)S(=O)(=O)c2ccccc2)c1	i	0.41
COc1cc2[nH]c(=S)n(CC3CCCO3)c(=O)c2cc1OC (stereo unspecified)	i	-0.03
CC(=O)c1cccc(NC(=S)N2CCC(Cc3ccccc3)CC2)c1	i	-0.06

(next part)
Every second line gives: KCNQ2 inh, KCNQ2 inh baseline
> O=C(C1CC1)N1N=C(c2ccc(F)cc2)CC1(O)C(F)(F)F (stereo unspecified)
 : i, -0.82
> O=[N+]([O-])c1ccc(SCc2c(F)cccc2Cl)nc1
 : i, -0.68
> O=C(Nc1ccc(Cl)cc1)N1CCN(c2ccc3nnc(-c4ccc(F)cc4)n3n2)CC1
 : i, 2.6
> COc1cc(C2c3c(-c4cc(C)cc(C)c4O)n[nH]c3C(=O)N2CCCO)cc(OC)c1OC (stereo unspecified)
 : i, 1.6
> Cc1ccc(Cn2ncc(Cl)c(Cl)c2=O)cc1
 : i, 1.9
> COc1ccc(Cc2nc3ccc(C(=O)NCCc4cccc(C)n4)cc3o2)cc1
 : i, 0.57
> COc1ccc2occ(C(=O)c3ccc(N)cc3)c2c1
 : i, -1.1
> O=C1NC2(CCCc3ccccc32)C(=O)N1CCOc1ccc(Br)cc1 (stereo unspecified)
 : i, 0.05
> Nc1cccc(-c2ccc(CO)o2)c1
 : i, 0.51
> c1ccc2c(-c3csc(-c4ccncc4)n3)c[nH]c2c1
 : i, 0.22
> COc1ccc(-c2oc3ccc(N4CCOCC4)cc3c2C#Cc2ccc(N)cc2)cc1
 : i, -2.1
> CCOC(=O)C1=C(CSc2nc(C)ccc2C#N)OC(N)=C(C#N)C1c1cccc(OC)c1OC (stereo unspecified)
 : i, 1.9
> CC(C)CCN(C(=O)COc1ccc(C#N)cc1)c1c(N)n(Cc2ccccc2)c(=O)[nH]c1=O
 : i, -0.79
> CN(C)c1ncnc(N(C)C)c1[N+](=O)[O-]
 : i, 0.73
> CCOc1cc(/C=C2\CCCC(C(=O)C(F)(F)F)=C2O)ccc1O
 : i, 1.9
> Cc1cc(C)c(C(=O)COC(=O)CCNS(=O)(=O)c2c(Cl)cccc2Cl)cc1C
 : i, 2
> COC(=O)c1ccccc1NC(=O)Nc1cnccn1
 : i, 0.79
> O=C(CCCc1ccccc1)NCCc1ccc(F)cc1
 : i, -0.12
> O=C(COC(=O)c1ccccc1NC(=O)c1ccco1)NC1CC1
 : i, -1.1
> O=c1cc(CO)oc(CN2CCC(Cc3ccccc3)CC2)c1O
 : i, 0.34
> CC(NC(=O)c1nn(C)c2c1CS(=O)(=O)c1ccccc1-2)c1ccccc1 (stereo unspecified)
 : i, -0.02
> C=CCn1c(O)c(N=NC(=S)Nc2ccccc2C)c2cc(S(=O)(=O)N3CCOCC3)ccc21
 : i, -2.3
> CCc1ccc(NC(=O)Cn2nnc(C(=O)NCc3ccc(OC)cc3)c2N)cc1
 : i, -0.36
> NCC12CC3CC(C1)CC(c1ccc(Cl)cc1)(C3)C2
 : i, -2
> CCN(CC)CCCn1c2c(c(SCC(=O)Nc3ccccc3Cl)nc1=O)CCC2
 : i, -0.76
> Cc1cccc(NC(=O)C2CCN(S(=O)(=O)c3ccc4c(c3)NC(=O)CO4)CC2)c1
 : i, -2.5
> N=c1c2c(-c3ccccc3)c(-c3ccccc3)n(Cc3ccco3)c2ncn1CCCO
 : i, 0.05
> COCCn1nnnc1CN(Cc1cccnc1)Cc1cc2cc(OC)ccc2[nH]c1=O
 : i, 1.1
> COc1ccc(OC)c(C(=O)Cn2nnc(-c3ccc(N4CCOCC4)cc3)n2)c1
 : i, -0.22
> CNC(=S)N(Cc1cccs1)Cc1cc2ccc(OC)cc2[nH]c1=O
 : i, 0.13
> COc1ccc2cc(C3CC(c4cccs4)=NN3S(C)(=O)=O)c(Cl)nc2c1 (stereo unspecified)
 : i, -0.38
> CN(CCc1ccccn1)S(=O)(=O)c1ccccc1F
 : i, 3.3
> C=CCOc1c(Br)cc(/C=N/O)cc1OCC
 : i, 0.16
> O=C(Nc1cccc(-c2nnc(-c3ccccc3)o2)c1)C1CC1
 : i, 0.93
> COc1cccc(CCNC(=O)C2CCCN(c3ncnc4c3nc3n4CCCCC3)C2)c1OC (stereo unspecified)
 : i, -0.09
> Cc1nnc(CN(C)Cc2cn[nH]c2-c2ccc(-c3ccccc3)cc2)o1
 : i, -2.6
> CC1CCCC(NC(=O)CCNC(=O)c2ccc(Br)cc2)C1C (stereo unspecified)
 : i, -1.6
> COc1ccc(CSc2ncnc3sccc23)cc1F
 : i, -0.41
> CN(CC(=O)NCc1cccnc1)S(=O)(=O)c1cc(Cl)ccc1Cl
 : i, 1.3
> CC12C=CC(=O)C=C1CCC1C2C(=O)C[C@@]2(C)C1CCC2(O)C(=O)CO (stereo partly specified)
 : i, 1.6

Some of the entries above in a different format.
SMILES | KCNQ2 inh | KCNQ2 inh baseline
COc1cccc(CCNC(=O)C2CCCN(c3ncnc4c3nc3n4CCCCC3)C2)c1OC (stereo unspecified) | i | -0.09
Cc1nnc(CN(C)Cc2cn[nH]c2-c2ccc(-c3ccccc3)cc2)o1 | i | -2.6
CC1CCCC(NC(=O)CCNC(=O)c2ccc(Br)cc2)C1C (stereo unspecified) | i | -1.6

(list continues)
Every second line gives: KCNQ2 inh, KCNQ2 inh baseline
> CCCCNC(=O)CCn1nc(-c2ccccc2)c2ccccc2c1=O
 : i, 0.85
> COc1ccc2cc3cc(C(=O)N(C)C4CCCCC4)oc3nc2c1
 : i, 0.1
> O=C(CNc1ccc(F)cc1)c1ccccc1
 : i, -1.2
> CCCCn1c(N)c(N(CCC(C)C)C(=O)c2ccc3c(c2)OCO3)c(=O)[nH]c1=O
 : i, -1.6
> Nc1nc(NCc2ccccc2Cl)n(-c2ccccc2)n1
 : i, -0.78
> CCOc1cccc(CN2CCC(n3nccc3NC(=O)c3ccc4c(c3)OCO4)CC2)c1
 : i, -1.6
> COc1ccc(OC)c(NC(=O)c2nc(-c3ccccc3)oc2C)c1
 : i, -2
> CCOC(=O)N1CCN(C(=O)c2cc3c(s2)-c2ccccc2OC3)CC1
 : i, 0.21
> COC(=O)CCC(=O)N1CCc2cc(S(=O)(=O)N3CCc4ccccc43)ccc21
 : i, -0.67
> CCn1cc(C(=O)N(C)c2cc(C)ccc2OC)c2cc(OC)c(OC)cc2c1=O
 : i, 2.8
> O=C(NCC(=O)N1CCN(S(=O)(=O)c2cccc(F)c2)CC1)c1ccc(Br)o1
 : i, -1.8
> COc1ccc(NC(=O)C2CCCN2S(=O)(=O)c2ccc3c(c2)CCC(=O)N3)cc1 (stereo unspecified)
 : i, 1.4
> COCc1cc(N2CCCCC2)nc(-c2ccccc2)n1
 : i, -0.4
> CC(C)(C)NC(=O)NC(=O)COc1ccccn1
 : i, 0.8
> CCc1nnc(NC(=O)CSc2nnc(C(C)NC(=O)c3ccccc3)n2C)s1 (stereo unspecified)
 : i, -0.4
> COc1ccccc1CNC(=O)CC(NS(=O)(=O)c1ccc(C)cc1)c1ccco1 (stereo unspecified)
 : i, 0.58
> CCC1Nc2ncnc(N3CCOCC3)c2N(Cc2ccccc2)C1=O (stereo unspecified)
 : i, -0.79
> CC1CCN(c2c(NCC3CCC(C(=O)N4CCCC(C)C4)CC3)c(=O)c2=O)CC1 (stereo unspecified)
 : i, 0.58
> Clc1ccc(OCCOCCOc2cccc3cccnc23)c(Br)c1
 : i, 1.1
> Cc1ccc(S(=O)(=O)c2nc(-c3ccc(F)cc3)oc2N2CCOCC2)cc1
 : i, -0.5
> CCn1c(SCC(=O)NNC(=O)Cc2ccccc2)nnc1-c1ccncc1
 : i, 0.31
> Cc1cc(C(=O)N/N=C/c2cccc([N+](=O)[O-])c2O)n[nH]1
 : i, -1.2
> CCOc1ccc(C(C)NC(=O)c2ccccc2F)cc1 (stereo unspecified)
 : i, 1.3
> CC(C)OCCCNC(=O)c1ccc(CS(=O)(=O)Cc2ccccc2F)o1
 : i, -0.72
> CC(C)c1ccc(C(=O)NN2C(=O)C3CCCCC3C2=O)cc1 (stereo unspecified)
 : i, -0.01
> CSc1ccc(CCNC(=O)c2nn(C)c3c2CS(=O)(=O)c2ccccc2-3)cc1
 : i, -0.37
> CSc1nc(-c2ccccc2)c2cc(Cl)ccc2n1
 : i, 0.02
> CCCCNC(=O)c1ccccc1C(=O)NCCCC
 : i, -1.2
> COc1ccc(OC)c(CCNC(=O)CN2C(=O)CC(C)(C)S(=O)(=O)c3ccccc32)c1
 : i, -0.84
> CON/C=C(\C=Nc1ccccc1)c1ncc(C(F)(F)F)cc1Cl
 : i, -1.3
> CCCCNC1=CC(=O)C(=O)c2ccccc21
 : i, -0.17
> COc1ccc(N2CC(C(=O)Nc3nc(-c4ccccc4)c(C(C)=O)s3)CC2=O)c(OC)c1 (stereo unspecified)
 : i, -1.2
> CCOC(=O)c1oc2ccccc2c1CN1CCOCC1
 : i, -0.07
> CSCCC(NS(=O)(=O)c1ccc2c(c1)oc(=O)n2C)C(=O)NC1CCCc2ccccc21 (stereo unspecified)
 : i, -0.5
> CCN(CC)S(=O)(=O)c1ccc(NC(=S)NC(=O)C(C)C)cc1
 : i, -0.82
> CCC(OC(=O)C1=Cc2ccccc2OC1)C(=O)NC1CCCC1 (stereo unspecified)
 : i, 0.01
> CSc1ncc(C(=O)Nc2ccc(C)cc2C)c(C)n1
 : i, 2.4
